# Screening data (PubChem)
# KAT2A inh = qHTS Assay for Inhibitors of GCN5L2; GCN5L2 HAT assay, ThioGlo1 CoA-SH fluorescence; Potency, µM (titrated, usually from 58.9 µM), for the others: at the highest dose activity change, negative = inhibition, actives largely listed as inhibitors; 0.21% of 390,000 active; AID 504327, 2011; active means well fitted inhibition curve with a large enough effect; inconclusive means small, poorly fitted or top-dose-only effect, or another doubt; inactive means no such curve, though single readings can be large or run the other way
# Target sequence (Q92830 whole entry, looked up): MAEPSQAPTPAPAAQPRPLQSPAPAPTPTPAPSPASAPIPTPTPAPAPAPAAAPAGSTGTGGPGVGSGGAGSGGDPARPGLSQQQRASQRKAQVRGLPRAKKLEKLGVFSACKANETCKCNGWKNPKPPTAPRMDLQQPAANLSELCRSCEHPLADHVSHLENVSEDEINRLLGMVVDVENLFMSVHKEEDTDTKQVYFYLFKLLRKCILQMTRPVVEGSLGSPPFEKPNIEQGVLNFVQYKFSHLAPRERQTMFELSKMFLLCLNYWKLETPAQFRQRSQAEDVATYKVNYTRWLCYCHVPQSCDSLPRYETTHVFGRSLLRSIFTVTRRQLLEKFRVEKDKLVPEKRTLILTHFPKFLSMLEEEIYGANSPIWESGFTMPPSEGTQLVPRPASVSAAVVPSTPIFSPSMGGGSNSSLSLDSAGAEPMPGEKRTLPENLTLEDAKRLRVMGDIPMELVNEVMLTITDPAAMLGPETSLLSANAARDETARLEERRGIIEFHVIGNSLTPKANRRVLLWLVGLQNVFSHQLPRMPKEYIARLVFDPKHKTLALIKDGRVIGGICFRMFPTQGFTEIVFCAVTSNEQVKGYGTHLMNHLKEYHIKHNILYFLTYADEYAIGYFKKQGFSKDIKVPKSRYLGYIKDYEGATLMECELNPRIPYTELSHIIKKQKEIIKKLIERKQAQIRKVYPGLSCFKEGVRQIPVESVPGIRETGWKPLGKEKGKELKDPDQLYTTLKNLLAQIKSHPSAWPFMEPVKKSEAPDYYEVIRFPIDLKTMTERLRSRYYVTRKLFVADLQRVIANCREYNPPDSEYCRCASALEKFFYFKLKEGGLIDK
#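 Fluorescence readout, Ex340nm/Em540nm: ThioGlo1 (50uM final) reacts with free CoA thiol released as 20nM GCN5L2 acetylates H3(1-25) peptide (75uM) using acetyl-CoA (70uM). Compound and enzyme sat 15 min beforehand; 20 min room-temperature reaction.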
# * marks the source's active call; other numbers are inactive results; ? = inconclusive; & = joins results of further samples; [ ] = dose if it differs, or a comment. On the % scale 0 is the no-effect control and ±100 the full control effect; potency means the concentration at half of the fitted maximal effect.
KAT2A inh | SMILES
2% | O=C(Nc1nnc(COc2ccccc2)s1)C1CCN(S(=O)(=O)c2ccc(Cl)cc2)CC1
-4%&0% | CCN1C(=NCCOC)N[C@@H](c2cccc(F)c2)C(C(=O)OC)=C1C
-2% | CC(=O)OCC(=O)[C@@]12OC(C)(C)O[C@@H]1CC1C3C[C@H](F)C4=CC(=O)C=CC4(C)[C@@]3(F)C(O)CC12C (stereo not given in full)
-4% | CCOC(=O)NC(C)N1C(=O)C2C3C=CC(C3)C2C1=O (stereo not given)
0% | COc1ccc(CC(C)NCC(O)c2ccc(O)c(NC=O)c2)cc1 (stereo not given)
2% | CN1CCN(CC#CCC(O)(c2ccccc2)C2CCCC2)CC1 (stereo not given)
-6% | COc1nc(C)ccc1-c1noc(-c2ccco2)n1
-6% | COc1ccc(S(=O)(=O)N2CCCC(C(=O)N3CCCC3)C2)cc1OC (stereo not given)
-3% | CCn1nnc(-c2ccccc2NC(=O)c2ccc(-n3cnnn3)cc2)n1
-7% | COc1ccc(S(=O)(=O)N(CC(=O)NCc2ccco2)c2ccccc2)cc1OC
-23% | O=C(O)c1ccc(NC(CSCc2cccc(F)c2)C(=O)O)c([N+](=O)[O-])c1 (stereo not given)
2%&1% | Cc1cc(C)[n+]2n1C(=O)C(c1ccccc1)=C2[O-]
-10% | CCCC(=O)N1CCC(Cc2ccccc2)CC1
-15% | COc1cc(/C=C2\SC(=S)N(CCC(=O)Nc3ccccc3O)C2=O)cc(OC)c1OC
-10% | O=C(O)C1CCCN(S(=O)(=O)c2ccc(-c3ccc(=O)[nH]n3)s2)C1 (stereo not given)
-2%&-4% | CC1CCCCN1CCCNC(=O)CN1C(=O)c2cccnc2Oc2ccc(Cl)cc21 (stereo not given)
7% | COc1ccc(-c2cn[nH]c2-c2ccc(OC)cc2)cc1
-11% | Cc1ccc(NC(=O)c2ccc3c(=O)n4c(nc3c2)CCCCC4)cc1F
-3% | CC(C)=CCN1CCN(CCCc2ccccc2)CC1CCO (stereo not given)
-1% | c1ccc(CCn2nnnc2CN2CCc3ccccc32)cc1
-3% | O=C(NCc1ccccn1)C1COc2ccccc2O1 (stereo not given)
-22% | CC#CCc1cc2ccccc2c(=O)o1
? | CC(=O)c1cnc(Nc2nc(C)c3ccc(C)cc3n2)nc1C
-3% | CCCNC(=O)c1onc(CSc2nc3ccccc3[nH]2)c1C(=O)NCCC
-3% | COc1ccc(OC)c(S(=O)(=O)NCCC(C)C)c1
0% | CCOC(=O)CN1N=C(c2ccc(C)cc2)CCC1=O
-7% | Cc1ccc(N(CC(=O)Nc2c(C)n(C)n(-c3ccccc3)c2=O)S(C)(=O)=O)c(C)c1
-14% | CCC(C)n1c(SCC(=O)NC2CCS(=O)(=O)C2)nc2ccccc2c1=O (stereo not given)
-1% | Cc1cccc(N(C)S(=O)(=O)c2c(C)noc2C)c1
3% | CCOC(=O)CC(NC(=O)c1ccco1)c1ccccc1Cl (stereo not given)
-1% | Cc1ccc(C)c(OCC(=O)Nc2cc(C(=O)O)cc(C(=O)O)c2)c1
? | CCc1ccc(Nc2nnc(SCC(=O)N(C)C3CCS(=O)(=O)C3)s2)cc1 (stereo not given)
-4% | Cc1cc(N2CC(C(=O)NCc3cccs3)CC2=O)ccc1C(C)C (stereo not given)
-6% | CCOC(=O)/C(C#N)=C\C1=C(N2CCOCC2)CC(C)(C)OC1
-1% | Cc1nc(COC(=O)c2c(C)nn(-c3ccccc3)c2C)cs1
-5% | CCN(CC)S(=O)(=O)c1cccc(C(=O)Nc2ccc3c(c2)OCO3)c1
-3% | CCOC(=O)C(C(=O)OCC)=C1OC(=O)c2ccccc21
-8% | Cc1ccc(CNc2ccc3c(c2)ncn3C(C)(C)C)cc1
-1% | O=C(NC1CCCc2ccccc21)c1ccccc1OC(F)F (stereo not given)
0% | O=C(Nc1ccc2c(c1)OCO2)c1noc2c1CCCCC2
2% | NCCCCCC(=O)N/N=C/c1ccc2nccnc2c1
-4% | N#Cc1cc2ccccc2n2nnnc12
2% | Cc1c(C(C)(C)O)[nH]c2ccc(C(F)(F)F)cc12
-2% | O=c1oc2ccc(Cl)cc2cc1-c1ccccc1
0% | O=C(CSc1ncnc2c1oc1ccccc12)Nc1cccc(F)c1
-16% | COc1ccc(Cl)cc1NC(=O)c1sc2nc(C)nc(N3CCOCC3)c2c1C
-15% | CNC(=S)NCCCc1ccccc1
-3% | COc1ccc(Cl)cc1NC(=O)Cn1c(NCCO)nc2ccccc21
0%[21.4 µM] | CN/C(=C\[N+](=O)[O-])NCCSCc1csc(CN(C)C)n1
-6% | O=C(/C=C/c1cccc([N+](=O)[O-])c1)Nn1c(-c2ccccc2F)nc2ccccc2c1=O
3% | CCOC(=O)C(NC(=O)Nc1ccc(O)cc1)(c1ccccc1)C(F)(F)F (stereo not given)
1% | CC(=O)c1ccc(NC(=O)CSc2ccc(-c3ccc4c(c3)OCO4)nn2)cc1
-1% | O=C(CSc1ccc(C(F)(F)F)cc1[N+](=O)[O-])Nc1ccc2ccccc2c1
-12% | Cc1ccc(S(=O)(=O)N(CC(=O)NCc2ccccc2)C(=O)N2CCN(C)CC2)cc1
-7% | c1ccc2oc(NC3=NCN(C4CCCCC4)CN3)nc2c1
-33% | COc1ccc(CCNS(=O)(=O)c2ccc(-n3cnnn3)c(OC)c2)cc1OC
-8% | Cc1ccc(-c2cnn(-c3cccc(C(F)(F)F)c3)c2N)cc1
-5% | O=C(CCC1CCCCC1)Nc1nnc(C(F)(F)F)s1
-6% | CCOc1cc(/C=N/NC(=O)c2cc(C)n(-c3ccc(F)cc3)c2C)ccc1O
-5% | Cc1ccccc1N1C(=S)NC2c3ccccc3OC1(C)C2C(=O)N(C)C (stereo not given)

# (cont.)
KAT2A inh | SMILES
-2% | C(=N\N=C\c1cccnc1)/c1cccnc1
1% | CC(C)c1ccc(N(CC(=O)NCc2ccc(F)cc2)C(=O)c2csnn2)cc1
-5% | O=C(N1CCCC1)C12CC3CC(CC(C3)C1)C2
-8% | CCn1cc(C(=O)N2CCCCC2)c(=O)c2cc(S(=O)(=O)N3CCC(C)CC3)ccc21
-11% | COc1ccc(C(=O)Nc2cc(OC)c(Cl)cc2OC)cc1
-10% | CN(C)CCNCc1ccc(OC2CCCC2)cc1
-3% | CC(=O)N1CCc2cc(S(=O)(=O)CCC(=O)NCCc3ccc(Cl)cc3)ccc21
20%&-19% | CCOC(=O)C1=C(O)C(=O)N(Cc2ccccc2)C1
-12% | CC(C)[C@H](NC(=O)[C@@H]1CSC2c3ccccc3C(=O)N21)C(=O)N1CCCCC1 (stereo not given in full)
0%[21.4 µM] | CCC(C)(C)C(=O)O[C@@H]1C[C@H](C)C=C2C=C[C@H](C)[C@@H](CC[C@H]3C[C@@H](O)CC(=O)O3)[C@H]21
? | O=C(Cn1c(=O)oc2ccc(Cl)cc21)NC1CCCCC1
2% | Cc1ccc(NC(=O)C(NS(=O)(=O)c2cccc3nsnc23)C(C)C)nc1 (stereo not given)
-11% | CCOc1ccc(N(CC(=O)Nc2cccc(Cl)c2)S(=O)(=O)c2c(C)noc2C)cc1
-7% | COc1cc(C(=O)NCCc2nc3ccccc3n2C)cc(OC)c1OC
-8% | CC1CCN(c2ccc(-c3cccc(NC(=O)C(F)(F)F)c3)nn2)CC1
-4% | CCO[C@@H]1OC(C(=O)N2CCCCCCC2)=C[C@H](C2CCCCC2)[C@H]1CCCO
-2% | CC(=O)Nc1cc(-c2nn(C)c(=O)c3ccccc23)ccc1N1CCCCC1
-6% | COc1ccc(N2C(=NC(=O)C3CCCCC3)SC3CS(=O)(=O)CC32)cc1 (stereo not given)
-4% | CC1CCCCC1NC(=O)c1c(O)nc2ccccn2c1=O (stereo not given)
1% | Cc1ccc(CNC(=O)c2ccc(N3CCC4(CC3)CC(c3ccccc3)=NO4)c(NC(=O)c3ccco3)c2)cc1
-6% | O=C1S/C(=C\c2ccc(Cl)cc2)C(=O)N1CCn1cnnn1
-1% | Cc1cc(C(=O)N[C@@H](c2ccccc2)[C@]2(C)C[C@H]2[C@@H](C)C(=O)Nc2ccc3ccccc3c2)no1
3% | O=C(O)CCNC(=O)c1ccccc1
-6% | CCCCC(CC)Cn1c(N)c(C#N)c2nc3ccccc3nc21 (stereo not given)
-9% | COc1ccccc1Oc1ccc(S(=O)(=O)N2CCCCC2C)cc1 (stereo not given)
1% | Cc1ccc(C2N(c3ccc(Cl)c(Cl)c3)C(=O)C3CCCN32)o1 (stereo not given)
-7% | CCCCCCn1c(NCC)nc2c1c(=O)[nH]c(=O)n2C
2% | COc1ccccc1C(=O)Nc1cc2cc(Br)ccc2oc1=O
-22% | C/C(=N\NC(=O)c1cc(-c2ccco2)nc2ccccc12)c1cccnc1
-5% | C#CCOC(=O)Nc1ccc(=O)n(Cc2c(Cl)cccc2Cl)c1
-8% | Cc1cn2c(nc(=O)c3cccnc32)s1
-2% | COc1ccc(C(=O)O)cc1NC(=S)NC(=O)Cc1ccc(Cl)cc1
-16% | COc1ccc(N(C)C(=O)C2CCN(S(=O)(=O)c3cccc4nonc34)CC2)c(OC)c1
-1% | CN/C(=C/[N+](=O)[O-])NCCSCc1ccc(CN(C)C)o1
0% | COc1ccc(NC(=O)CSc2nnc(-c3ccccn3)n2-c2ccccc2)cc1OC
? | C=CCNc1nc(C(=O)OCC(=O)c2ccc(Cl)cc2)cs1
-3% | Cc1sc2c(c1C)C(=O)/C(=C\Nc1ccccn1)S(=O)(=O)N2C
-3% | CCCC(=O)Nc1ccc(C2C(=O)c3ccccc3C2=O)cc1
8%[21.4 µM] | CC(C)(C)NC[C@H](O)c1ccc(O)c(CO)c1
3% | Cc1nnc(SC(C)C(=O)N2CCc3ccccc32)s1 (stereo not given)
-3% | CC(=O)N1N=C(c2cccs2)CC1c1cccc([N+](=O)[O-])c1 (stereo not given)
-10% | COC(=O)CCN(c1ccccc1)S(=O)(=O)c1cc(-c2cc(C)no2)ccc1C
-3% | CCOC(=O)c1ccc(-c2ccc(/C=C(\C#N)C(=O)NCc3cccs3)o2)cc1
1% | CCOc1ccc(N(CC(=O)N/N=C/c2cccnc2)S(C)(=O)=O)cc1
? | O=C(Cn1ccc2ccccc2c1=O)NCC1COc2ccccc2O1 (stereo not given)
-9% | Cc1ccc(S(=O)(=O)NCC(c2ccc3c(c2)OCO3)N2CCN(c3ccccc3)CC2)cc1 (stereo not given)
-12% | O=C1C2C3C=CC(CC3)C2C(=O)N1c1ccccc1[N+](=O)[O-] (stereo not given)
-13% | COc1ccc(CC(=O)N2CCN(c3cccc(Cl)c3)CC2)cc1OC
-8% | COc1ccc(S(=O)(=O)N2CCNCC2)cc1OC
-6% | O=C1/C(=C/c2ccccn2)SC(=S)N1c1cccc(O)c1
-2% | Brc1cccc(CNCC2CCCO2)c1 (stereo not given)
-1% | O=C(Nc1nnc(Cc2ccccc2)s1)c1ccco1
-3% | CCCOC1CCCN(C(=O)c2ccc(OC)c(OC3CCN(C(C)C)CC3)c2)C1 (stereo not given)
-11% | CC(C)(C)CC(C)(C)c1ccc(OCCOCC[N+](C)(C)Cc2ccccc2)cc1
-13% | CC(=O)OCC(=O)[C@@]12OC(C)(C)OC1CC1C3CC(F)C4=CC(=O)C=C[C@@]4(C)[C@@]3(F)C(O)C[C@]12C (stereo not given in full)
2% | CCc1ccc2[nH]c(C(=O)Nc3ccc(Br)c(C)n3)cc2c1
-2% | Oc1c(Cl)cc(Cl)cc1/C=N/c1ncn[nH]1
-4% | CCOc1ccc(-c2nnn(CCC(=O)O)n2)cc1OC
-7% | CCN(c1ccc(OC)cc1)S(=O)(=O)c1nnc(NC(=O)COc2ccccc2)s1
-7% | COc1cc(/C=N/NC(=O)c2cccs2)ccc1O

# (list continues)
KAT2A inh | SMILES
-12% | O=C(CN1CCN(Cc2ccccc2)CC1)Nc1nnc(C(F)(F)F)s1
2% | CN(C)S(=O)(=O)c1cccc(C(=O)NCCCn2ccnc2)c1
-13% | N#Cc1nc(Cc2cccc3ccccc23)oc1NCc1ccc2c(c1)OCO2
1% | COc1cccc(NC(=O)CN(C)CC(=O)NC(C)c2ccccc2)c1 (stereo not given)
-4% | O=C(N/C(=C\c1ccc(Br)cc1)C(=O)N1CCCC1)c1cccs1
-5% | COc1ccc(CCNC(=O)c2ccccc2NC(=O)C2=C(C)OCCS2)cc1OC
-3% | CN=C(C[N+](=O)[O-])NCCSCc1ccc(CN(C)C)o1
-7% | COc1cc(OC)c(NC(=O)C2CCCN2C(=O)OCc2ccccc2)cc1Cl (stereo not given)

# These rows are one share of the data, and most or all hits are left out here.
